# Bst PK mod – modulators of Bacillus stearothermophilus pyruvate kinase | partly purified Bacillus stearothermophilus pyruvate kinase, luminescence ATP production; ribose 5-phosphate activator present at AC10 | Potency, µM | 1.2% of 51,000 active; in the data active means potency below about 11 µM; inconclusive means mostly about 12 µM to 25 µM; inactive means weaker than that;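 the screen sought inhibitors and activators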;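 also: potency is read from the fitted curve at half-maximal effect; scaled between full activation by ribose 5 phosphate and full inhibition by luteolin; about four in five hits inhibit and the cells do not say which; series up to 57 µM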
# TsaE inh – YjeE (TsaE) inhibition, E. coli | P0AF67 | purified YjeE, fluorescence polarisation of a bound ADP probe | Potency, µM | 0.05% of 71,000 active | AID 605; active = well fitted falling curve; inconclusive = weaker or top-dose-only fall, or a rising curve; inactive = flat or poorly fitted curve;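 also: top concentration of the series not given in the record; excess ADP was the control for the full effect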
#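 Purified YjeE (10 uM) with BODIPY Texas Red-labeled ADP probe (2 uM); compounds pin-transferred, 15 min at room temperature. Binding inhibition read as decreased fluorescence polarization; ADP titration as control.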
# * = called active by the depositor; i = inactive; ? = inconclusive; / = not tested or not shown.
# Below each SMILES: Bst PK mod, TsaE inh
CCS(=O)(=O)n1nc(-c2ccccc2)nc1N
→ >57, i
Cc1ccc(NC(=O)CSc2nnc(CSc3nc(C)cc(C)n3)n2Cc2ccco2)c(C)c1
→ >57, i
O=C(c1ccncc1)N1CCC2(CCN(Cc3ccccc3)CC2)CC1
→ /, i
O=C(COC(=O)c1ccccc1NC(=O)c1ccco1)NCCC1=CCCCC1
→ >57, i
COc1cccc(Cn2c(=O)c(C)nc3cnc(N4CCOCC4)nc32)c1
→ /, i
CCOC(=O)C1=C(c2ccccc2)NC(SCC(=O)Nc2ccc(C)cc2)=C(C#N)C1c1ccco1 (stereo not drawn)
→ >57, i
COc1ccc(NC(=O)c2cc(Cl)ccc2NC(=O)c2ccco2)c(OC)c1
→ >57, i
O=S(=O)(NC1=NCCC1)c1cccs1
→ >57, i
Cc1cccc(-n2ncc3c(NCCCn4ccnc4)ncnc32)c1
→ /, i
O=[N+]([O-])/C=C\c1cc2ccccc2[nH]1
→ /, i
Cc1cc2ccccc2n1CCNC(=O)C1CCCC1
→ >57, i
COc1ccc(OCC(=O)Nc2ccc(NC(=O)c3ccco3)cc2)cc1
→ /, i
O=C(Nc1ccc2c(c1)OCO2)C1CCCN(S(=O)(=O)Cc2ccccc2)C1 (stereo not drawn)
→ >57, i
CCN1C(=O)/C(=C\N2CCCc3ccccc32)SC1=S
→ >57, i
C=CC(C)n1c(Br)nc2c1c(=O)[nH]c(=O)n2C (stereo not drawn)
→ >57, i
Cc1ccccc1C#N
→ /, i
NC(=O)c1c(N)sc(=S)n1-c1ccccc1
→ >57, i
O=C(COc1ccc2ccccc2c1)N1CCCC1
→ /, i
COc1ccc(CCN(CC(=O)NC2CCCC2)C(=O)CCC(=O)Nc2cc(C)on2)cc1OC
→ >57, i
Cc1ccc(CCNC(=O)C2CCCN(c3nc4ccccc4o3)C2)cc1 (stereo not drawn)
→ >57, i
COc1ccc(-c2nnc3sc(CN4C(=O)c5ccccc5C4=O)nn23)cc1
→ >57, i
COc1cc(OC)c(CN2CCN(c3ccc(F)cc3)CC2)cc1Br
→ /, i
NC(=O)CSc1nc2ccccc2n1Cc1ccccc1F
→ >57, i
N=c1n(CCN2CCOCC2)c2ccccc2n1CC(O)COc1ccccc1 (stereo not drawn)
→ >57, i
COc1ccc(CN2CCC(CNC(=O)NC3CCCCC3)CC2)cc1
→ >57, i
O=C(Nc1ccc2c(c1)OCO2)c1cccc2c1C(=O)N(Cc1cccnc1)C2
→ /, i
COc1ccc(Oc2ncc3nc(C)c(=O)n(-c4ccc(OC)cc4)c3n2)cc1
→ /, i
Cc1ncoc1C(=O)Nc1ccccc1-c1ccccc1
→ >57, i
Cc1ccc(S(=O)(=O)c2ccc(Cl)cc2)cc1S(=O)(=O)N1CCOCC1
→ /, i
OC[C@@H](O)COc1cccc2ccccc12
→ /, i
COc1ccc(C(=O)N2CCC3(CCCN(c4cccc(-c5ccccc5)c4)C3)CC2)cc1
→ /, i
COCC(=O)N1CCC2(CC1)CN(c1ccc(-c3ccccc3)cc1)C2
→ /, i
CC1CCCC(C)N1S(=O)(=O)c1ccc(NC(=O)CNCC2CCCO2)cc1 (stereo not drawn)
→ >57, i
CC(=O)SCCC(=O)N1C(C)CCCC1C(=O)O (stereo not drawn)
→ /, i
CCOC(=O)N1CCN(C(=O)c2ccc(CNS(=O)(=O)c3ccc(C)cc3)cc2)CC1
→ >57, i
CCN(CC)CCNC(=O)C1c2ccccc2C(=O)N(C)C1c1cn(C)c2ccccc12 (stereo not drawn)
→ >57, i
COc1cccc(Cn2c(=O)c(-c3ccc(Cl)cc3)nc3cncnc32)c1
→ /, i
O=C(NCC1CCS(=O)(=O)C1)Oc1ccccc1 (stereo not drawn)
→ /, i
O=S(=O)(c1ccccc1)N1CCC2(CCCN(c3ccccc3)C2)CC1
→ /, i
Cn1nc(-c2ccc(N3CCOCC3)c(NC(=O)c3ccccc3)c2)c2ccccc2c1=O
→ >57, i

# Copied from the list.
# COc1ccc(-c2nnc3sc(CN4C(=O)c5ccccc5C4=O)nn23)cc1 in Bst PK mod → >57
# COc1ccc(NC(=O)c2cc(Cl)ccc2NC(=O)c2ccco2)c(OC)c1 in Bst PK mod → >57
# CCOC(=O)C1=C(c2ccccc2)NC(SCC(=O)Nc2ccc(C)cc2)=C(C#N)C1c1ccco1 (stereo not drawn) in Bst PK mod → >57
# Cn1nc(-c2ccc(N3CCOCC3)c(NC(=O)c3ccccc3)c2)c2ccccc2c1=O in Bst PK mod → >57

# Later entries
# Below each SMILES: Bst PK mod, TsaE inh
N#CC(C(=O)c1ccc(S(=O)(=O)N2CCCCCC2)cc1)c1nc2ccccc2[nH]1 (stereo not drawn)
→ >57, i
CS(=O)(=O)N(CCc1ccccc1)CC(=O)NCc1ccccn1
→ >57, i
CCOc1ccccc1-n1c(SCC(=O)NC2CCCC2)nnc1-c1ccoc1C
→ >57, i
O=C(OCn1nnc2ccccc2c1=O)c1ccc2ncsc2c1
→ /, i
O=C(O)CCc1ccc(-c2ccccc2)n1Cc1ccco1
→ >57, i
CC(=O)N1CCC(C(=O)Nc2ccccc2)(N(Cc2ccccc2)C(=O)c2cccnc2)CC1
→ >57, i
N#Cc1cc2cc3c(cc2nc1N1CCOCC1)OCO3
→ >57, i
O=c1c2ccccc2nc2n1CCS2
→ >57, i
C=C(C)CSCc1nc2ccccc2[nH]1
→ >57, i
COc1ccccc1-n1cnnc1SCC(=O)Nc1cc(C(C)(C)C)nn1-c1ccccc1
→ >57, i
COCCn1c(=O)c(-c2cccc(C#N)c2)nc2cnc(OCc3ccccc3)nc21
→ /, i
Cc1nc2ccccc2n1CCC(=O)Nc1cccc(F)c1
→ >57, i
O=C(NCc1ccco1)c1cc2c(s1)CCCCC2
→ /, i
O=C(c1cccc(F)c1)N1CCC2(CC1)CN(c1cccc(-c3ccccc3)c1)C2
→ /, i
Cc1noc(C)c1-c1nccc(NCCN2CCOCC2)n1
→ /, i
CCCC(c1nnnn1CS(=O)(=O)c1ccc(C)cc1)N1CCN(c2ccc(F)cc2)CC1 (stereo not drawn)
→ >57, i
COc1ccc(-c2nc(CSCC(=O)N3CCC(C(N)=O)CC3)c(C)o2)cc1OC
→ /, i
O=C(O)/C=C\C(=O)Nc1ccccn1
→ /, i
Cc1cc(NC(=O)c2cnn3cccnc23)nn1CC(=O)Nc1cccnc1
→ >57, i
N#CCSCC(=O)Nc1ccc(F)cc1
→ >57, i
CCOC(=O)CN1C(=O)C(CC)Oc2ccccc21 (stereo not drawn)
→ >57, i
COc1ccc(NC(=O)c2c(C)cc(=O)oc2C)c(OC)c1
→ >25.6, /
Nc1[nH]nc2nc(N3CCCC3)nc(-c3ccccc3)c12
→ /, i
COc1ccc(C(=O)N2CCC3(CCCN(Cc4ccc(C#N)cc4)C3)CC2)cc1
→ /, i
Cc1nn(-c2nc3ccccc3s2)c(N)c1Sc1ccc(F)cc1
→ >57, i
CC(C)Oc1ccc(C(CC(=O)O)NC(=O)C2CCCCC2)cc1 (stereo not drawn)
→ >57, i
CC(Oc1ccc(Cl)cc1Cl)C(=O)NCCN1CCOCC1 (stereo not drawn)
→ /, i
CC(=O)N1CCc2ccc(C(=O)CN3CCN(c4cccc(C)c4C)CC3)cc21
→ >57, i
Cn1c(SCC(=O)Nc2sc3c(c2C#N)CCC3)nnc1C1COc2ccccc2O1 (stereo not drawn)
→ >57, i
Cc1ccc2[nH]c(=O)c(CN(CCCO)S(=O)(=O)c3c(C)ccc4nsnc34)cc2c1
→ >57, i
COc1ccccc1-c1ccc(=O)n(CC(=O)NCc2ccc3c(c2)OCO3)n1
→ >57, i
O=C(c1ccco1)N1CCN(CC(=O)N2CCCc3c2c(=O)oc2ccc(O)cc32)CC1
→ >57, i
Cc1nn(-c2ccccc2)c2[nH]c(=O)c(CNc3ccc4c(c3)OCCO4)cc12
→ >57, i
CCc1oc2ccccc2c1C(=O)CCN1CCCCC1
→ >57, i
CCNc1ncc2ncc(=O)n(C)c2n1
→ /, i
O=C(NCc1ccccc1)c1cnsn1
→ >57, i
O=c1[nH]c2cc([N+](=O)[O-])c([N+](=O)[O-])cc2[nH]c1=O
→ /, i
C=CCn1c(SCC(=O)c2cccs2)nc2sc(CC)cc2c1=O
→ /, i
Cc1cc(C)nc(NS(=O)(=O)c2ccc(NC(=O)c3ccc4c(c3)OCO4)cc2)n1
→ /, i
CC(=O)[C@@]1(N=Nc2ccc(S(N)(=O)=O)cc2)CCOC1=O
→ /, i
O=C(CCCc1ccccc1)NCCN1CCOCC1
→ /, i
CCC(Sc1nnc(-c2ccc(C)c(Cl)c2)n1CC)C(=O)Nc1nccs1 (stereo not drawn)
→ >57, i
O=C(c1ccncc1)N1CCC2(CC1)CN(c1ccncc1)C2
→ /, i
COc1ccccc1CNC(=O)c1ccc(S(=O)(=O)N(C)C)cc1
→ >57, i
Cc1cc2cc(CNC(=O)NC3CCCCC3)ccc2[nH]1
→ >57, i
Cc1cc(C)n(C(=O)C(C)N2C(=O)c3ccccc3C2=O)n1 (stereo not drawn)
→ >57, i
CCOc1ccc(C2=Nn3c(nnc3-c3ccc(OC)cc3)SC2)cc1
→ >57, i
COc1ccc(CCN=C2SCC(=O)N2C)cc1OC
→ /, i
CCSc1nnc2c(Cl)cc(Cl)cn12
→ >57, i
NCCCC(=O)O
→ /, i
CCOC(=O)c1cccc(NC(=O)CN2C(=O)C3C4C=CC(C4)C3C2=O)c1 (stereo not drawn)
→ >57, i
COc1cccc(Cn2c(OCC3CCCO3)nc3c2c(=O)n(C)c(=O)n3C)c1 (stereo not drawn)
→ >25.6, /
C=CCSC1=C(C#N)C(c2ccccc2OC)CC(=O)N1 (stereo not drawn)
→ ?, i
CCOC(=O)C1CCCN(C(=O)c2sc3nc(-c4ccccc4)cn3c2C)C1 (stereo not drawn)
→ >57, i
CSc1ccccc1NC(=O)CN(Cc1ccccc1)S(C)(=O)=O
→ >57, i
O=C(O)c1nn(-c2ccccc2)nc1-c1nn(-c2ccccc2)nc1C(=O)O
→ /, i
O=C(c1ccccc1)c1ccc(N2CCNCC2)cc1
→ >57, i
CC1(C)CC(=O)c2sc(NS(C)(=O)=O)nc2C1
→ >57, i
CCOC(=O)NC(CC(=O)O)c1ccc(OCC)cc1 (stereo not drawn)
→ >57, i
COc1ccc(CCNC(=O)c2noc3c2CCCC3)cc1OC
→ >57, i

# Next compounds
# Below each SMILES: Bst PK mod, TsaE inh
N#C/C(C(=O)N1CCOCC1)=C1\Nc2ccccc2S1
→ >11.4, i
COc1ccccc1-c1nc(NCc2ccccc2)c2ccccc2n1
→ /, i
COC(=O)CCC(=O)Nc1ccc(NC(C)=O)cc1
→ >57, i
O=C(NCc1ccco1)C1CCC(CNS(=O)(=O)c2cccc3cccnc23)CC1 (stereo not drawn)
→ /, i
COCCCNc1oc(-c2ccccc2F)nc1C#N
→ /, i
CC(=O)N1CCc2cc(C(=O)CN3CCN(C(=O)c4ccco4)CC3)ccc21
→ /, i
c1ccc(CSc2nncn2-c2ccccn2)cc1
→ >57, i
COc1ccc2[nH]c(=O)c(CN(C(C)=O)C3CCCCC3)cc2c1
→ >57, i
O=C(NCC(=O)N(c1cccnc1)C(C(=O)NC1CCCC1)c1ccco1)c1cccs1 (stereo not drawn)
→ >57, i
CCc1ccc(NC(=O)C2CCN(S(C)(=O)=O)CC2)cc1
→ >57, i
CCCCCCN(C(=O)CCCCCN1C(=O)NC(c2ccc(C3CCCCC3)cc2)C(C(=O)OCc2ccccc2)=C1C)C(C(=O)NCCCC)c1ccc(OCC(=O)OC)c(C(=O)OC)c1 (stereo not drawn)
→ /, i
Cc1cc(N2CCN(c3ccccc3)CC2)n2nnnc2n1
→ >57, i
CCN1C(=O)N(C)C(N(O)C(=O)NC)C1(C)C (stereo not drawn)
→ >57, i
O=C(C1CCCN(S(=O)(=O)c2cccs2)C1)N1CCN(C2CCCCC2)CC1 (stereo not drawn)
→ >57, i
CC(=O)c1cccc(NC(=O)N2CCN(S(C)(=O)=O)CC2)c1
→ >57, i
C=C(C)c1cccc(C(C)(C)NC(=O)NCCCn2ccnc2)c1
→ >57, i
CCCc1cc(=O)n2[nH]c(-c3ccccc3)cc2n1
→ /, i
CC(=O)Nc1cc(OC(=O)c2ccco2)cc(OC(=O)c2ccco2)c1
→ /, i
Brc1ccc2ncnc(NCc3ccco3)c2c1
→ /, i
NS(=O)(=O)c1ccc(NC(=O)CN2CCN(Cc3ccccc3)CC2)cc1
→ >57, i
Cc1ccc2[nH]c(=O)c(CN(CCc3ccccc3)Cc3nnnn3CC3CCCO3)cc2c1 (stereo not drawn)
→ >57, i
COC(=O)c1ccc(NC(=O)COc2ccc(S(=O)(=O)NC(C)C)cc2)cc1
→ >57, i
O=S(=O)(c1ccc(S(=O)(=O)N2CCN(C3CCCCC3)CC2)cc1)N1CCCCCC1
→ >57, i
N[C@H](Cc1cc(I)c(Oc2cc(I)c(O)c(I)c2)c(I)c1)C(=O)O
→ /, i
COC(=O)C1=C(C)NC(=O)NC1/C=C/c1ccccc1 (stereo not drawn)
→ >57, i
NC(N)=NCCCCN=C(N)N
→ /, i
O=C1C=C(O)CC(c2cccs2)C1 (stereo not drawn)
→ >25.6, /

# Profiles from above. Order of screens: Bst PK mod, TsaE inh
# `O=C(c1ccco1)N1CCN(CC(=O)N2CCCc3c2c(=O)oc2ccc(O)cc32)CC1` across the screens: >57, i
# `COC(=O)CCC(=O)Nc1ccc(NC(C)=O)cc1` across the screens: >57, i
# `O=C(O)c1nn(-c2ccccc2)nc1-c1nn(-c2ccccc2)nc1C(=O)O` across the screens: /, i
# `Cc1cc(N2CCN(c3ccccc3)CC2)n2nnnc2n1` across the screens: >57, i
# `O=C(NCc1ccco1)C1CCC(CNS(=O)(=O)c2cccc3cccnc23)CC1` (stereo not drawn) across the screens: /, i

# The list is partial; rates above refer to the full screens.
